GLA inh pH 4.5: inhibitors of human alpha-galactosidase A at pH 4.5. purified enzyme, 4-MU-alpha-Gal fluorescence, pH 4.5. activity change, negative = inhibition, % at 105 µM. 230,000 tested, under 10 active; inconclusive = small, poorly fitted or top-dose-only inhibition, or a rising curve; inactive = flat fitted curve, though single readings scatter; no compound was filed as active;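 also: 0% = full activity with enzyme and -100% = basal without enzyme; dose as in the result columns while the protocol names 77 µM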
Target sequence (P06280 whole entry, looked up): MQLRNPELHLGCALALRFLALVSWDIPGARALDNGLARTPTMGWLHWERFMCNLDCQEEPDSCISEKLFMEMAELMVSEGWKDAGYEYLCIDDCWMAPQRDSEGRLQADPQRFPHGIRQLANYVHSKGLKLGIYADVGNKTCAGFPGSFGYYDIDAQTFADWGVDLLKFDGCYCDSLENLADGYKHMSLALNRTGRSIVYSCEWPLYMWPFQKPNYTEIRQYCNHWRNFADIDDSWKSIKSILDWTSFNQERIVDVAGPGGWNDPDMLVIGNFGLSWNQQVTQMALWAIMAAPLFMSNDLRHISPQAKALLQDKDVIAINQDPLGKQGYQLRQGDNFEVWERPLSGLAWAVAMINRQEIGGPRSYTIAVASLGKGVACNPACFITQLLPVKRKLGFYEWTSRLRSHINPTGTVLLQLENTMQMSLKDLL
miR-21 FLuc: raises the signal of a miR-21 reporter; AID 2288; HeLa miR-21 FLuc reporter, luciferase, 48 h; Potency, µM (doses to about 38.3 µM), without a hit: at the top dose reporter change, positive = more light; 340,000 tested, under 10 active; active = well fitted rising curve with a large enough effect; inconclusive = small, poorly fitted or top-dose-only effect; inactive = no such curve, though single readings can be large or run the other way;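 also: % of control where 0% means no effect; miR-21 action dims this reporter so a rising signal means less miR-21 action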
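HeLa cells stably expressing CMV-driven firefly luciferase with a downstream miR-21 binding sequence, endogenously expressing miR-21, were treated with titrations (up to about 40uM final) for 48 hours at 37 degree Celsius. Luciferase luminescence was read after lysis.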
Rango release inh: inhibition of RanGTP-driven Rango-importin beta dissociation; O95149+P62826; Biochemical FRET Rango-importin beta, RanGTP-induced dissociation; Potency, µM (top dose mostly 46.1 µM), for inactives: at the highest dose activity change, negative = inhibition; 0.071% of 340,000 active; AID 540253; active means falling FRET ratio curve, often poorly fitted, with flat reads before Ran was added; inconclusive means other falling curves, or compound fluorescence or quenching; inactive means flat or rising ratio curve;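 also: potency is read from the fitted curve at half-maximal effect; % of control where 0% means no effect; nearly all actives have a fitted effect of over 45% in size; -100% = wells without RanGTP and RCC1; the record marks most hits as doubtful in a second field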
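Quantitative HTS using a FRET biosensor: 0.1 uM Rango, 0.25 uM importin beta, 0.6 uM Ran, 2 mM GTP, 0.2 uM RCC1 final, PBS with DTT, Tween-20 and BSA. Post-read taken 45 min after Ran addition.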
Rango complex inh: prevents formation of the Rango-importin beta complex; Rango CFP/YFP FRET sensor + importin beta, 45 min; Potency, µM (doses to about 92.2 µM), inactives show at the highest dose inhibition of complex formation; 0.031% of 340,000 active; active = rising FRET ratio curve, often small or poorly fitted; inconclusive = mostly compound fluorescence or quenching in the first reads; inactive = flat curves in all reads;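 also: potency is read from the fitted curve at half-maximal effect; 0% = DMSO wells and 100% = buffer wells lacking importin beta; nearly all actives have a fitted effect of over 15% in size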
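FRET biosensor (snurportin 1 IBB flanked by EYFP and cerulean), 50 nM, with compound 5 min, then 0.125 microM importin beta in PBS, 1 mM DTT, 0.02% Tween-20, 0.1% BSA. CFP/YFP ratio read after 45 min at room temperature; pre-read flags interference.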
* hit, by the source's call; & = joins results of further samples.

For O=C1N/C(=N/N=C/c2ccco2)SC1Cc1ccccc1 (stereo unspecified) the results were GLA inh pH 4.5 -1, miR-21 FLuc 2%, Rango release inh -1% and Rango complex inh -2.1%.
For O=C(CCN1CCN(c2ccccc2)CC1)c1ccc(Br)cc1 the results were miR-21 FLuc -1%, Rango release inh 5% and Rango complex inh -0.2%.
`O=C(c1ccccc1)c1ccc(OCCn2cnc3ccccc3c2=O)cc1` gave GLA inh pH 4.5 3, miR-21 FLuc -8%, Rango release inh -1% and Rango complex inh -0.5%.
For CCn1c(N2CCN(C(=S)NCCc3ccccc3)CC2)nc2ccccc21 the results were GLA inh pH 4.5 -4, miR-21 FLuc 16%, Rango release inh 7% and Rango complex inh -3.7%.
Screening Cn1c(SCC(=O)NCCc2ccccc2)nnc1-c1ccncc1 returned GLA inh pH 4.5 3, miR-21 FLuc 4%, Rango release inh 4% and Rango complex inh inconclusive.
Screening O=C(/C=C/c1ccccc1)Nn1c(-c2cccs2)nc2ccccc2c1=O returned GLA inh pH 4.5 -6, miR-21 FLuc 8%, Rango release inh 2% and Rango complex inh -0.4%.
For COc1cc(/C=N/NC(=O)/C(=C/c2ccccc2)CCO)ccc1O the results were GLA inh pH 4.5 -5, miR-21 FLuc -11%, Rango release inh 19% and Rango complex inh -0.6%.
CC(=O)c1ccc(S(=O)(=O)N2CCCCC2C(=O)O)cc1 (stereo unspecified) was read as GLA inh pH 4.5 -6, miR-21 FLuc -3%, Rango release inh 1% and Rango complex inh 4.2%.
Screening Cc1nc(-c2ccc(F)cc2)c(CC(=O)N2CCN(S(=O)(=O)c3ccc(F)cc3)CC2)s1 returned miR-21 FLuc 0%, Rango release inh -6% and Rango complex inh 2.8%.
For O=C(O)c1cccc2cccnc12 the results were GLA inh pH 4.5 1, miR-21 FLuc 0%, Rango release inh 9% and Rango complex inh -4.2%.
COc1ccc(OC)c(/C=N/NC(=O)CNC(=O)c2cccc3ccccc23)c1 was read as miR-21 FLuc 0%, Rango release inh 2% and Rango complex inh 0.9%.
COC(=O)C1=C(C)NC(=O)C1(NS(=O)(=O)c1ccc(NC(C)=O)cc1)C(F)(F)F (stereo unspecified) was read as GLA inh pH 4.5 7, miR-21 FLuc -9%, Rango release inh -15% and Rango complex inh inconclusive.
Screening COc1ccc(/C=N/NC(=O)CNC(=O)c2ccc(S(=O)(=O)N3CCOCC3)cc2)c(OC)c1 returned GLA inh pH 4.5 6, miR-21 FLuc 2%, Rango release inh -1% and Rango complex inh -0.3%.
Screening COC(=O)c1ccc(Cl)c(NC(=O)CN2CCC(C)CC2)c1 returned GLA inh pH 4.5 6, miR-21 FLuc -14%, Rango release inh 1% and Rango complex inh -0.3%.
For N#C/C(=C\c1ccc(N2CCCCC2)o1)C(=O)Nc1cccc(Br)c1 the results were GLA inh pH 4.5 2, miR-21 FLuc -57%, Rango release inh inconclusive and Rango complex inh inconclusive.
For O=C(/C=C/c1ccc2c(c1)OCO2)NCCSCc1cccc(Cl)c1 the results were GLA inh pH 4.5 -7, miR-21 FLuc 10%, Rango release inh -14% and Rango complex inh 2.0%.
COc1ccc(NC(=O)CN(C)C(=O)CNC(=O)c2ccc3c(c2)OCO3)cc1 was read as Rango release inh 2% and Rango complex inh 0.1%.
Screening Cc1ccc(Oc2ccc(N)cc2)cc1 returned GLA inh pH 4.5 -10, miR-21 FLuc -10%, Rango release inh -3% and Rango complex inh -7.6%.
For CC1CCCCC1NC(=O)NC(=O)COC(=O)C1=NN(c2ccccc2)C(=O)CC1 (stereo unspecified) the results were Rango release inh -3% and Rango complex inh -3.1%.
For O=C(NN1CC(=O)N(c2cc(Cl)cc(Cl)c2)CC1=O)c1sccc1Cl the results were GLA inh pH 4.5 -1, miR-21 FLuc -6%, Rango release inh -8% and Rango complex inh 1.5%.
O=C(N/C(=C/c1ccc(Br)cc1)C(=O)N1CCOCC1)c1ccco1 was read as miR-21 FLuc -1%, Rango release inh -2% and Rango complex inh 0.5%.
Screening O=C1C2C3C=CC(C3)C2C(=O)N1Nc1ccccc1 (stereo unspecified) returned GLA inh pH 4.5 6, miR-21 FLuc 1%, Rango release inh 0% and Rango complex inh -1.0%.
For COc1ccc(NC(=O)c2ccccn2)cc1S(=O)(=O)N1CCOCC1 the results were GLA inh pH 4.5 3, miR-21 FLuc -2%, Rango release inh -3% and Rango complex inh -1.8%.
`O=C(CS(=O)CC(=O)Nc1cnc2ccccc2c1)Nc1ccc(Cl)cc1` (stereo unspecified) gave miR-21 FLuc 2%, Rango release inh -11% and Rango complex inh 6.5%.
`CCOC(=O)CSc1nnc(-c2cccnc2)n1Cc1ccccc1` gave GLA inh pH 4.5 0, miR-21 FLuc -14%, Rango release inh 22% and Rango complex inh 0.3%.
NC(=O)C1(N2CCCCC2)CCN(C(=S)NC2CCCC2)CC1 was read as GLA inh pH 4.5 8, miR-21 FLuc -4%, Rango release inh -1% and Rango complex inh -0.4%.
For COc1cccc(CNc2nc(C(F)(F)F)nc3ccccc23)c1 the results were miR-21 FLuc inconclusive, Rango release inh 15% and Rango complex inh 1.1%.
CCOC(=O)N1CCC(NC(=O)c2cccc3c2C(=O)N(c2ccc(OC)cc2)C3)CC1 was read as GLA inh pH 4.5 -1, miR-21 FLuc -15%, Rango release inh 8% and Rango complex inh 0.1%.
For O=C(c1ccc(-c2ccc(Cl)cc2Cl)o1)N1CCOCC1 the results were GLA inh pH 4.5 2, miR-21 FLuc -76%, Rango release inh 28% and Rango complex inh 0.3%.
For CC(=O)c1c(C)[nH]c(C(=O)NNC(=O)c2ccc(C)cc2)c1C the results were Rango release inh -19% and Rango complex inh -0.2%.
CC1CCCC(NC(=O)COC(=O)c2ccc([N+](=O)[O-])o2)C1C (stereo unspecified) was read as Rango release inh 1% and Rango complex inh -0.6%.
For Cc1cc(C)c(S(=O)(=O)N(C)CC(=O)NCC2CCCO2)c(C)c1 (stereo unspecified) the results were miR-21 FLuc -2%, Rango release inh 7% and Rango complex inh -0.1%.
For CCCN1CNC(=S)N(c2cccc(C)c2)C1 the results were GLA inh pH 4.5 -1, miR-21 FLuc 1%, Rango release inh 5% and Rango complex inh 0.9%.
`COC(=O)Cn1c(=O)c2c(nc(Br)n2CC(=O)OC)n(C)c1=O` gave GLA inh pH 4.5 -5, miR-21 FLuc -4%, Rango release inh -2% and Rango complex inh 0.1%.
Cc1ccc(C(=O)NNC(=O)CSc2nnc(C(C)C)n2C)cc1 was read as miR-21 FLuc 0%, Rango release inh 14% and Rango complex inh -3.2%.
`CNC(=S)N1N=C(c2ccc(C)cc2)CC1c1ccc(Cl)cc1` (stereo unspecified) gave GLA inh pH 4.5 -2, miR-21 FLuc -3%, Rango release inh -6% and Rango complex inh 3.1%.

By substructure, those above containing a COOH group
CC(=O)c1ccc(S(=O)(=O)N2CCCCC2C(=O)O)cc1 (stereo unspecified) was read as GLA inh pH 4.5 -6, miR-21 FLuc -3%, Rango release inh 1% and Rango complex inh 4.2%.
For O=C(O)c1cccc2cccnc12 the results were GLA inh pH 4.5 1, miR-21 FLuc 0%, Rango release inh 9% and Rango complex inh -4.2%.

Other structures follow:
Screening COc1ccc(C2=NN(C(=O)CCC(=O)O)C(c3ccc(Br)cc3)C2)cc1 (stereo unspecified) returned miR-21 FLuc -7%, Rango release inh -1% and Rango complex inh 0.0%.
For COc1ccc(CNC(=O)CCCCCNc2nc(=S)[nH]c3ccccc23)cc1 the results were GLA inh pH 4.5 9, miR-21 FLuc -5%, Rango release inh 0% and Rango complex inh inconclusive.
Screening Cn1cccc1C(=O)OCC(=O)NCCc1ccccc1 returned Rango release inh 24% and Rango complex inh -4.6%.
`Cc1c(C)n2c(SCC(=O)N3CCC(C)CC3)nnc2[nH]c1=O` gave Rango release inh 5% and Rango complex inh -1.2%.
For COc1ccc2c(c1)C(=O)[C@@H](O)[C@H](c1ccc(OC)c(Br)c1)O2 the results were GLA inh pH 4.5 -10&7, miR-21 FLuc -10%, Rango release inh -16% and Rango complex inh -2.8%.
`CCOC(=O)c1cnn(-c2cc(C)c3ccccc3n2)c1N` gave GLA inh pH 4.5 8, miR-21 FLuc -17%, Rango release inh -7% and Rango complex inh -3.5%.
For c1ccn2cc(CSC3=NCCS3)nc2c1 the results were GLA inh pH 4.5 -5, miR-21 FLuc -51%, Rango release inh 3% and Rango complex inh 3.2%.
For CCN(CC)S(=O)(=O)c1ccc(/C=C/C(=O)Nc2c(C)n(C)n(-c3ccccc3)c2=O)cc1 the results were GLA inh pH 4.5 5, miR-21 FLuc 8%, Rango release inh 0% and Rango complex inh 2.8%.
For Cc1cc(N2C(=O)[C@@H]3[C@H](C2=O)[C@@H]2C[C@H]3C(Br)C2Br)no1 (stereo partly specified) the results were GLA inh pH 4.5 3, miR-21 FLuc 3%, Rango release inh 1% and Rango complex inh 0.6%.
COc1ccccc1-n1nnnc1SCC(=O)NC(=O)Cc1ccccc1 was read as Rango release inh 1% and Rango complex inh -3.0%.
`CC12CC(c3ccccc3O1)N(C(=O)c1ccco1)C(=O)N2c1ccccc1` (stereo unspecified) gave GLA inh pH 4.5 -5, miR-21 FLuc 1%, Rango release inh 9% and Rango complex inh 1.4%.
`Cc1sc2ncnc(NCC3CCCO3)c2c1C` (stereo unspecified) gave GLA inh pH 4.5 4, miR-21 FLuc -7%, Rango release inh -1% and Rango complex inh -0.6%.

Four entries drawn at random from those above, as already listed:
`Cc1sc2ncnc(NCC3CCCO3)c2c1C` (stereo unspecified) gave GLA inh pH 4.5 4, miR-21 FLuc -7%, Rango release inh -1% and Rango complex inh -0.6%.
`Cc1c(C)n2c(SCC(=O)N3CCC(C)CC3)nnc2[nH]c1=O` gave Rango release inh 5% and Rango complex inh -1.2%.
`CCOC(=O)c1cnn(-c2cc(C)c3ccccc3n2)c1N` gave GLA inh pH 4.5 8, miR-21 FLuc -17%, Rango release inh -7% and Rango complex inh -3.5%.
Screening Cn1cccc1C(=O)OCC(=O)NCCc1ccccc1 returned Rango release inh 24% and Rango complex inh -4.6%.

(list continues)
Screening COC(=O)CCS(=O)(=O)c1nc(-c2ccccc2)cc(C(F)(F)F)n1 returned GLA inh pH 4.5 9, miR-21 FLuc inconclusive, Rango release inh 0% and Rango complex inh -1.2%.
Screening CCC(=O)N1CCc2cc(S(=O)(=O)CCC(=O)Nc3cccc(F)c3)ccc21 returned GLA inh pH 4.5 -3, miR-21 FLuc 1%, Rango release inh 1% and Rango complex inh 0.5%.
Screening O=S(=O)(c1ccc(F)cc1)N1CCN(c2nc(-c3cccnc3)nc3ccccc23)CC1 returned Rango release inh 5% and Rango complex inh 0.6%.
Screening COc1ccc(S(=O)(=O)NC(CC(=O)NCCc2ccccc2)c2ccco2)cc1 (stereo unspecified) returned GLA inh pH 4.5 6, miR-21 FLuc -3%, Rango release inh -3% and Rango complex inh -1.8%.
Screening Fc1cc2[nH]cnc2cc1Cl returned GLA inh pH 4.5 -1, miR-21 FLuc -6%, Rango release inh 0% and Rango complex inh 0.7%.
`O=C(Nc1ccccc1)OCN1C(=O)c2ccccc2C1=O` gave GLA inh pH 4.5 0, miR-21 FLuc -17%, Rango release inh 1% and Rango complex inh 0.1%.
`CN(C)c1ccc(C=NCCc2ccc(S(N)(=O)=O)cc2)cc1` gave GLA inh pH 4.5 -6, miR-21 FLuc 1%, Rango release inh -3% and Rango complex inh -1.9%.
Screening CCn1nc(C)c(/C=C/C(=O)Nc2ccc(C)cc2C)c1C returned GLA inh pH 4.5 11, miR-21 FLuc -20%, Rango release inh 10% and Rango complex inh 0.4%.
For Cc1cc(C(=O)Nc2c(F)cc(F)cc2Br)cs1 the results were miR-21 FLuc -10%, Rango release inh 15% and Rango complex inh -0.8%.
C/C(CC(=O)NC1CCCC1)=N\NC(=O)Cc1csc(N)n1 was read as GLA inh pH 4.5 6, miR-21 FLuc -25%, Rango release inh 11% and Rango complex inh 2.7%.

Source: PubChem (National Center for Advancing Translational Sciences (NCATS))

An excerpt; the hit share may differ from the screen's.
